# RN4220 kill – S. aureus RN4220 growth inhibition; AID 1259311; 330,000 tested, 0.33% active; inhibition, % (concentration not given with the values); OD600, 16 h;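 active = z-score of -3 or lower and OD600 up to 0.18 on both plates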;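 note: plate controls were untreated cells for no effect and reference antibiotic for full effect; stock transfer was 100 nL into about 80 µL; one replicate is shown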
# BJeLR viability – BJeLR cell viability loss; inhibition, % (concentration not given with the values); BJeLR (HRASV12) viability, CellTiter-Glo ATP luminescence, 48 h; reference of the scale not given here; 300,000 tested, 0.17% active;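 active = replicate mean above 50%; inconclusive = above 50% but judged a plate artefact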;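 note: 50 nL library stock added to about 25 µL; numbers are from one replicate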
# Bead autofluor – counter-screen for toxin protease inhibitors: compound fluorescence | fluorescence intensity (concentration not given with the values) | 360,000 tested, 3.1% active | AID 624483 | compound autofluorescence counterscreen, microsphere flow cytometry; stronger effect = higher value;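 active = at least 3 SD above the mean of all compounds, about 16000 in these data; inconclusive = too few beads counted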;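 note: 100 nL of 1 mM stock went into each well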
# Mtb hypoxia inh – Mtb hypoxia fluorescent reporter inhibition | M. tuberculosis hypoxia-regulated fluorescent reporter, fluorescence | fluorescence inhibition, % (concentration not given with the values) | 300,000 tested, 0.1% active | AID 1159583;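 active = 35 to 45% if threefold the growth effect, above 45% if 1.5-fold the growth effect; inactive = the rest, general growth blockers included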;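 note: wells of about 50 µL received 100 nL stock; 0% = vehicle wells and 100% = reference inhibitor wells; whole bacteria with a GFP reporter of the hypoxia response; strong numbers were not always called active; many hits fall short of the cut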
# PrP UTR inh – suppresses PrP 5' UTR mRNA reporter expression; inhibition, % (test concentration not listed); AID 488862; cell-based PrP 5' UTR mRNA reporter, plate reader; 340,000 tested, 0.35% active;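 active = every replicate at 50% or more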;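 note: 0 = median of the neutral control wells; tested in H4 reporter cells; numbers are from one replicate; inactives centre near -14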
# Sa ugtP lethal – growth inhibition of S. aureus ugtP deletion strain | S. aureus RN4220 ugtP deletion, OD600 growth, 16 h; some inactives read as strong as hits | growth inhibition, % (concentration not given with the values) | 330,000 tested, 0.54% active | AID 1259309;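 active = z-score under -3 and OD600 up to 0.15 on both plates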;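 note: plate controls were untreated wells for no effect and antibiotic for full effect; wells of about 80 µL received 100 nL stock; the first replicate is given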
# Mtb hypoxia inh growth – further read-out of Mtb hypoxia inh, marked with its call; growth inhibition, %; measured here: M. tuberculosis growth (absorbance);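 0% = vehicle and 100% = reference antibiotic; read after six days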
# * = called active by the depositor; ? = inconclusive; . = no result given.
SMILES,RN4220 kill,BJeLR viability,Bead autofluor,Mtb hypoxia inh,Mtb hypoxia inh growth,PrP UTR inh,Sa ugtP lethal
O=C(CO/N=C/c1ccc2c(c1)OCO2)Nc1cccc(Br)c1,.,-2,10238,.,.,-12,.
CC(C)(Oc1ccc(Cl)cc1)C(=O)Nc1ncccn1,5.4,5,3299,2,7,-6,11
O=C(COc1ccc(Br)cc1)NCc1cn2ccccc2n1,1.7,8,.,15,8,-12,3
Cc1ccc(S(=O)(=O)NN=c2sc3ccccc3n2C)cc1,7.2,.,.,-6,-1,.,-3
Cc1ccc(OCC(=O)NCCCNC(=O)COc2ccc(C)cc2)cc1,4.0,5,4187,-1,-6,0,5
CC12CN3C(O)C(C)(C1)CC(C)(C2)C3O (configuration not stated),1.0,-2,13678,8,-6,-2,10
COc1ccc(-c2cc(C(=O)NC3CCCC3)no2)cc1OC,1.8,-9,22323*,3,13,-47,-1
O=c1[nH]c(CSc2ncnc3sccc23)nc2ccccc12,3.0,2,5119,5,1,-30,4
O=C(O)c1c(-c2ccccc2)c2oc3ccccc3c2[nH]c1=O,2.6,-5,8340,15,6,-30,-11
CCCCCOc1ccc(NC(=O)C(=O)NCCCn2ccnc2)cc1,6.4,-13,3721,15,21,-24,0
CC(NC(=O)Cn1cc2c(n1)CCCCC2)c1ccccc1 (configuration not stated),-2.6,0,5710,.,.,-2,-4
CCOc1ccccc1C(=O)NCCCCCC(=O)O,4.9,5,4404,-8,13,-13,4
Cc1ccc(/C=C/C(=O)Nc2cc(C)on2)cc1,-1.1,-3,4467,.,.,-66,1
O=C(N/N=C/c1cc(Br)ccc1O)C(c1ccncc1)N1CCOCC1 (configuration not stated),.,-6,6925,.,.,-6,.
O=C(NNC(=S)Nc1ccc(OC(F)F)cc1)c1cc2c(s1)CCCC2,3.5,4,2068,7,0,-14,-2
CCCC1=C(C(=O)OCC)C(c2ccncc2)n2ncnc2N1 (configuration not stated),7.1,9,10297,13,10,-23,3
O=C(Nc1cccc(Cl)c1)Nc1ccccc1-n1ccnc1,1.8,-6,2499,4,-1,-13,-2
C(#Cc1ccccc1)C[N+]1(CC#Cc2cccc3ccccc23)CCCC1,88,11,3098,19,36,-28,98*
Cc1ccccc1CC1S/C(=N/N=Cc2ccco2)NC1=O (configuration not stated),-3.8,.,.,-4,7,.,7
O=C(CSc1nc2[nH]ncc2c(=O)n1-c1ccccc1)N1CCCc2ccccc21,-0.2,5,.,-1,4,.,-6
CCC1(c2ccccc2)NC(=O)N(CC(=O)Nc2cc(S(=O)(=O)N3CCCCC3)ccc2N(C)C)C1=O (configuration not stated),2.7,4,?,9,0,-13,2
CCOc1ccccc1OCCOc1ccc(F)cc1,8.5,-4,2296,.,.,-14,11
CC(Nc1nc(-c2ccc(F)cc2)cs1)c1nc2cc(Cl)c(N3CCCCC3)cc2n1CCCO (configuration not stated),-12,-9,3331,-3,8,-16,-31
COc1ccc(N2CCN(C(=O)CSc3nc(C)cs3)CC2)cc1,-1.4,-5,5451,1,9,-12,0
O=C(/C=C/c1cccs1)NCc1ccccc1,9.8,10,4066,.,.,-25,-1

# Further entries.
SMILES,RN4220 kill,BJeLR viability,Bead autofluor,Mtb hypoxia inh,Mtb hypoxia inh growth,PrP UTR inh,Sa ugtP lethal
Cc1cc(C)n(CCNC(=O)c2ccco2)n1,3.3,-8,4057,9,3,-14,0
CCc1ccccc1NC(=O)CN1C(=O)C2CCCN2c2ncc(Cl)cc21 (configuration not stated),-14,-6,.,13,10,-16,-3
O=C(NCCO)c1nc(C(=O)c2ccccc2)c2ccccc2n1,5.9,.,3584,10,9,-10,0
CC(C)c1c(C(=O)N/N=C/c2ccccc2OCc2c(F)cccc2Cl)nnn1-c1nonc1N,.,35,5409,.,.,-26,.
Cc1ccc(S(=O)(=O)N2CCN(c3cc4c(cc3[N+](=O)[O-])n(C)c(=O)n4C)CC2)cc1,0.2,0,4302,10,-1,14,7
O=S(=O)(c1ccc(F)cc1F)N1CCCN(c2ccc(C(F)(F)F)cn2)CC1,4.2,-13,5771,6,10,-12,-8
O=C(COC(=O)[C@@H]1CCCN1C(=O)c1cccs1)Nc1ccc(Br)cc1,-7.3,.,2954,2,2,-1,-13
Cc1cc(N2CCCCC2)nc2ccccc12,5.8,1,4402,4,8,-31,-2
c1cc2c3c(cccc3c1)NC1(CCCC1)N2,3.9,.,2260,-6,3,6,-6
COc1cc2c(C(=O)N3CCN(c4cccc(Cl)c4)CC3)cn(CC(C)C)c(=O)c2cc1OC,-3.3,2,4262,-11,7,1,-14
COC(=O)CN1C(C)=Nc2ccc(C)cc2C1c1ccccc1 (configuration not stated),5.4,1,2065,8,-1,-15,1
CCOC(=O)[C@@H]1[C@H]2COc3ccccc3[C@H]2N2C(=O)N(c3ccc(C(F)(F)F)cc3)C(=O)[C@]12C,.,8,3504,.,.,-32,.
O=C(N/N=C/c1cccnc1)c1cccc(N2CCCC2=O)c1,.,8,4332,.,.,-14,.
CC(=NNC(=O)c1ccncc1)c1c[nH]c2ccccc12,0.3,.,.,-23,5,.,-2
Cc1cccc(C(=O)NC(C)C(c2cccs2)N2CCOCC2)c1 (configuration not stated),1.5,9,4400,-1,7,-15,-1
O=C(NN=Cc1ccc(OC(=O)c2cccc(F)c2)cc1)c1cccnc1,1.1,.,.,3,7,.,5
O=C(Nc1nnc(C2=COCCO2)o1)c1ccc(S(=O)(=O)N2CCCCC2)cc1,6.3,-7,2484,17,2,-6,4
O=C(NC1=NCCS1)NC12CC3CC(CC(C3)C1)C2,2.6,5,10416,-2,-2,-32,-2
O=[N+]([O-])c1ccc(N2CCCCCC2)c2ncccc12,11,-3,2625,8,4,-32,9
Cc1ccc(C=NNC(=O)c2ccco2)s1,5.6,.,.,5,-4,.,1
Cc1ccc2c(c1)C1C[N+](C)(CC(=O)Nc3ccccc3Cl)CCC1N2C(=O)c1ccccc1Cl (configuration not stated),-1.8,.,4120,-1,13,-19,-15
O=C(NC(=S)Nc1ccc2ncccc2c1)c1ccccc1,15,7,4302,14,8,-44,4
Cc1cnc(C(=O)Nc2cccc3cccnc23)cn1,8.5,-6,9088,13,10,-42,-11
CCn1c(C)cc(/C=C2/SC(=S)N(CC(=O)O)C2=O)c1C,7.9,-15,4303,2,-4,-25,4
CCOC(=O)c1sc2nc(-c3ccccc3)ccc2c1N,1.2,-17,2112,-10,-1,-29,-1

# Overlap with the part before: two compounds; new compounds follow.
SMILES,RN4220 kill,BJeLR viability,Bead autofluor,Mtb hypoxia inh,Mtb hypoxia inh growth,PrP UTR inh,Sa ugtP lethal
CCn1c(C)cc(/C=C2/SC(=S)N(CC(=O)O)C2=O)c1C,7.9,-15,4303,2,-4,-25,4
CCOC(=O)c1sc2nc(-c3ccccc3)ccc2c1N,1.2,-17,2112,-10,-1,-29,-1
CC(=O)C[C@@H](O)CC(=O)[C@@H]1OC(=O)[C@H](C)CCCCc2ccccc21,2.8,.,2951,5,3,-19,8
O=S(=O)(c1ccc(Sc2nnc3ccccn23)nc1)N1CCOCC1,3.4,1,10434,4,7,-13,4
Cc1cc(=O)[nH]c(SCC(=O)Nc2ccccc2[N+](=O)[O-])n1,9.5,19,4196,-15,4,.,3
O=C(NCc1ccco1)c1ccc(F)c(S(=O)(=O)N2CCCCC2)c1,1.3,7,4291,0,3,-28,4
CC(CCc1ccccc1)=NNC(=O)C(=O)Nc1cccc(Cl)c1,6.7,.,.,-3,-2,.,8
O=C(O)c1cc(N2N=C(C(F)(F)F)/C(=C/C=C/c3ccco3)C2=O)ccc1Cl,16,.,4197,4,7,-26,-2
CCOc1ccc(C(=O)NCC(C)CN(C)C)cc1OCC (configuration not stated),-0.4,-1,3661,.,.,1,6
Cc1cc(C)cc(CC2CC(=O)N(c3cc(C)ccc3C)C2=O)c1 (configuration not stated),1.1,-13,3523,6,-3,-13,9
COc1ccc(NC(=O)CSc2nc(N)cc(=O)[nH]2)cc1S(=O)(=O)N1CCCCC1,4.5,.,.,-2,-2,7,2
Cc1ccc(C(=O)C(C)OC(=O)CNC(=O)c2ccc(Br)o2)cc1 (configuration not stated),1.5,0,11567,6,11,-12,13
CCCCC(=O)NNC(=O)CC(=O)Nc1ccccc1C(=O)O,8.7,-14,?,4,-4,-15,1
Cc1ccc(OCC(=O)OC2CCS(=O)(=O)C2)cc1 (configuration not stated),0.7,1,?,-3,-1,7,-2
Cc1ccc(S(=O)(=O)N/N=C/c2cccs2)cc1,.,1,2526,.,.,-10,.
Cc1onc(-c2ccccc2)c1C(=O)N1CCN(Cc2ccccc2)CC1,0.4,-10,5483,2,7,-19,0
CCN(CC)S(=O)(=O)c1ccc2c(c1)c(C(=O)O)cn2C,-1.8,4,2697,.,.,-16,6
O=C(CCl)c1ccc2c(c1)CCN2C(=O)C1CCCCC1,98*,30,4467,9,6,-17,99*
O=C1CCCc2[nH]c3cccc(/C(=C/c4ccccc4)c4ccccc4)c3c21,-19,-11,3947,4,-2,-12,11
O=C(CSc1nnc(COc2ccc(Cl)cc2)o1)N1CCOCC1,2.4,-4,4647,8,10,-4,6
CC(=O)NCC1CCCN(Cc2cn(-c3ccccc3)nc2-c2ccc3c(c2)OCO3)C1 (configuration not stated),15,4,4878,1,-10,-14,3
Cc1c(-c2csc(N)n2)cnn1C,0.4,-2,4003,11,9,-10,-2
CCCc1ccc(C(=O)CN2C(=O)C(=O)N(C3CCCC3)C2=O)cc1,2.5,.,.,15,8,-33,7
O=C(NO)c1ccc(OC(F)F)cc1,.,15,2459,.,.,-39,.
COc1cc(OC)c(C2N(c3cc(C)on3)C(=O)C3CCCN32)cc1OC (configuration not stated),2.1,6,4718,9,14,-27,5
Cc1ccc2occ(/C=N/NC(=O)c3ccncc3)c(=O)c2c1,.,0,5364,.,.,-21,.
Cc1ccc(CNC(=O)N2CCN(C)CC2)cc1,-5.4,-11,2163,-3,-3,-28,-2

# New compounds follow.
SMILES,RN4220 kill,BJeLR viability,Bead autofluor,Mtb hypoxia inh,Mtb hypoxia inh growth,PrP UTR inh,Sa ugtP lethal
Cc1ccc(NC(=O)c2ccc(-n3cncn3)c([N+](=O)[O-])c2)cc1,-0.2,3,6342,10,21,-57,4
NC(=O)c1ccsc1NC(=O)COC(=O)Cc1ccccc1Cl,7.5,.,3898,6,0,-14,3
O=C(NN=Cc1ccc(O)cc1)c1cc[n+](Cc2ccccc2)cc1,3.0,.,.,8,12,.,4
CCOc1ccc(N2C(=O)CC(NCCc3c[nH]c4ccccc34)C2=O)cc1 (configuration not stated),-1.5,-14,2255,-13,10,-24,-3
COc1cc(C=NNC(=O)c2cc(-c3ccccc3OC(C)C)nc3ccccc23)ccc1O,-2.0,.,.,-13,2,.,-1
CC(=O)Nc1c(-c2ccccc2Cl)c(=O)c2ccccc2n1C,2.8,-1,3433,4,-5,-16,5
CCCCNC(=O)c1cc2c(-c3ccc(Cl)cc3)nn(C)c2s1,-0.1,1,6225,.,.,2,-1
Cc1c(C(=O)NCC2CCCO2)oc2ccc(S(=O)(=O)N3CC(C)CC(C)C3)cc12 (configuration not stated),-0.4,1,5535,-2,7,-32,6
Cc1ccc(S(=O)(=O)N(C)C)cc1-n1c(SCC(=O)N(C)C)nc2ccccc2c1=O,2.5,-1,4609,6,5,3,0
CCOC(=O)c1cc(CC)sc1NC(=O)COc1ccc2c(C)cc(=O)oc2c1,9.7,-1,3076,.,.,-118,-6
O=C(Nc1ccc2c(c1)OCO2)C1CCN(C(=O)c2ccc(Cl)cc2)CC1,4.9,6,4732,20,11,-28,7
CCSc1nnc(NC(=O)C2CCN(S(=O)(=O)c3c(C)c(C)cc(C)c3C)CC2)s1,9.6,7,.,-7,-9,.,14
O=C(Cn1ncc2c1-c1ccccc1OC2)N1CCc2ccccc21,-1.9,-4,5695,-2,5,-13,-2
CCN(CC)S(=O)(=O)c1ccc(N=Nc2cc(C)cc(Br)c2O)cc1,2.3,1,?,-12,-20,-19,-2
CCOc1ccc(NC(=O)CN2C(=O)c3ccccc3C2=O)cc1,4.9,-1,3336,15,13,-20,15

# A different layout for some results above.
# Screens in order – RN4220 kill	BJeLR viability	Bead autofluor	Mtb hypoxia inh	Mtb hypoxia inh growth	PrP UTR inh	Sa ugtP lethal
Cc1cnc(C(=O)Nc2cccc3cccnc23)cn1
→ 8.5	-6	9088	13	10	-42	-11
CC(NC(=O)Cn1cc2c(n1)CCCCC2)c1ccccc1 (configuration not stated)
→ -2.6	0	5710	.	.	-2	-4

# High-throughput results as filed in PubChem.
